# rRNA inh HTS = inhibitors of bacterial rRNA selective over humanized ribosomes | E. coli WT GFP vs humanized-ribosome RFP mutants, fluorescence, 24 h; stronger effect = lower value; DMSO median 0, no signal -100 | GFP signal change (wild-type ribosome), % (no concentration beside the values) | 350,000 tested, 1.6% active | AID 720706;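 active means significant combined selectivity score with lowered wild-type GFP, culture density cut under 30%, mutant RFP and density less affected; inactive means any of these conditions unmet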; further: one replicate is shown; some compounds called inactive have numbers as strong as hits
# rRNA inh HTS OD600 = second read-out of rRNA inh HTS, no call of its own (marks repeat the call); OD600 change, %; measured here: OD600 growth;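 optical density of the mix in the first replicate; 0 = DMSO median and -100 = no signal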
# rRNA inh HTS RFP = also measured in rRNA inh HTS; calls as there; RFP signal change, %; measured here: RFP humanized mutant strains;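 first replicate; 0 = DMSO median and -100 = no signal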
# An asterisk follows results filed as active; & = joins results of further samples.
# The line under a structure holds: rRNA inh HTS | rRNA inh HTS OD600 | rRNA inh HTS RFP
C[C@H]1CN([C@@H](C)CO)C(=O)c2cccc(NC(=O)CCCCCC(=O)Nc3ccccc3N)c2O[C@@H]1CN(C)C
    1 | 1 | -2.5
O=C(C[C@@H]1CC[C@@H](NC(=O)c2cccc(F)c2)[C@@H](CO)O1)NCc1ccccc1
    -1 | -1 | -3.7
OC[C@@H]1CN(Cc2ccc(F)cc2)C[C@H](n2cnc3c(NC4CC4)ncnc32)O1
    5 | 16 | 6.7
CN1C(=O)c2cc(NC(=O)C3CCOCC3)ccc2OC[C@@H]2O[C@H](CC(=O)NCC3CCCCC3)CC[C@H]21
    1 | 0 | 1.8
Cc1noc(C)c1NC(=O)Nc1cccc2c1O[C@H](CN(C)CC1CCCCC1)[C@H](C)CN([C@@H](C)CO)C2=O
    8 | 4 | -1.3
CC(C)NC(=O)N(C)C[C@H]1OCc2ccccc2-c2ccccc2C(=O)N([C@@H](C)CO)C[C@H]1C
    2 | 1 | 1.0
Cc1noc(C)c1NC(=O)N(C)C[C@@H]1OCCCC[C@@H](C)Oc2ccc(NC(=O)Nc3ccccc3)cc2C(=O)N([C@@H](C)CO)C[C@H]1C
    -2 | -1 | -1.7
COc1ccc(NC(=O)N2C[C@@H]3[C@H](c4ccccc42)[C@@H](CO)N3C(=O)C2CCCCC2)cc1
    -4 | -5 | 0.6
CC(C)NC(=O)N1CCCCN2[C@H](CO)[C@H](c3ccc(Br)cc3)[C@H]2C1
    3 | 9 | -2.5
CC(C)NC(=O)N1C[C@@H]2C(c3ccccc3)[C@H](C1)N2Cc1ccc(F)cc1 (stereo partly specified)
    -1&-7 | -12&-19 | -0.9&1.0
Nc1ccn([C@@H]2O[C@H](C(=O)Nc3ccc(C(=O)N4CCCCC4)cc3)[C@@H](O)[C@H]2O)c(=O)n1
    7 | 11 | -3.4
CCNC(=O)C[C@@H]1CC[C@@H]2[C@@H](COc3ccc(NC(=O)Nc4cccc(OC)c4)cc3C(=O)N2C)O1
    0 | -3 | 3.6
C[C@@H]1CN([C@@H](C)CO)C(=O)c2cccc(NC(=O)C3CCOCC3)c2O[C@@H]1CN(C)S(=O)(=O)c1cn(C)cn1
    3 | 19 | -3.5
CCn1cc(/C=C(\NC(=O)c2ccccc2)C(=O)NCCN2CCOCC2)c2ccccc21
    7 | 5 | 3.9
C[C@H](CO)N1C[C@H](C)[C@H](CN(C)C(=O)Nc2ccccc2)OCCCC[C@H](C)Oc2ccc(NC(=O)c3ccncc3)cc2C1=O
    1 | 1 | 0.6

# Complete entries, quoted from the list. Screens in order: rRNA inh HTS, rRNA inh HTS OD600, rRNA inh HTS RFP
# `O=C(C[C@@H]1CC[C@@H](NC(=O)c2cccc(F)c2)[C@@H](CO)O1)NCc1ccccc1` across the screens: -1, -1, -3.7
# `C[C@H]1CN([C@@H](C)CO)C(=O)c2cccc(NC(=O)CCCCCC(=O)Nc3ccccc3N)c2O[C@@H]1CN(C)C` across the screens: 1, 1, -2.5
# `CCNC(=O)C[C@@H]1CC[C@@H]2[C@@H](COc3ccc(NC(=O)Nc4cccc(OC)c4)cc3C(=O)N2C)O1` across the screens: 0, -3, 3.6
# `COc1ccc(NC(=O)N2C[C@@H]3[C@H](c4ccccc42)[C@@H](CO)N3C(=O)C2CCCCC2)cc1` across the screens: -4, -5, 0.6
# `OC[C@@H]1CN(Cc2ccc(F)cc2)C[C@H](n2cnc3c(NC4CC4)ncnc32)O1` across the screens: 5, 16, 6.7

# Other results
# The line under a structure holds: rRNA inh HTS | rRNA inh HTS OD600 | rRNA inh HTS RFP
CC(=O)N1C[C@H]2[C@@H](c3ccccc31)[C@@H](CO)N2Cc1ccc(Cl)cc1
    1 | 1 | -0.2
COc1ccc(NC(=O)C2Cc3c(-c4cccc(C(C)=O)c4)ccnc3O2)cc1 (stereo unspecified)
    -26 | -32 | -5.5
C[C@H]1CN([C@@H](C)CO)S(=O)(=O)c2ccc(/C=C/c3ccccc3)cc2O[C@@H]1CN(C)Cc1ccc(C(=O)O)cc1
    -12 | -6 | 11
COC(=O)[C@]12CCCCC=C1N(CCC1=CCCCC1)C(=O)[C@H](CC(=O)N1CCN(C(=O)c3ccco3)CC1)C2
    -11 | -13 | -1.8
Cc1noc(C)c1NC(=O)Nc1ccc2c(c1)C(=O)N(C)[C@H]1CC[C@@H](CC(=O)NCc3ccc(Cl)cc3)O[C@H]1CO2
    -2 | -4 | 0.4
C[C@@H]1CN([C@@H](C)CO)C(=O)c2cccc(NC(=O)Nc3ccc4c(c3)OCO4)c2O[C@@H]1CN(C)S(=O)(=O)c1cccs1
    -4 | -8 | -2.8
O=C(N[C@H](Cc1ccccc1)C(=O)NCc1ccc2c(c1)OCO2)[C@H]1O[C@@H](n2ccc(=O)[nH]c2=O)[C@H](O)[C@@H]1O
    6 | 12 | 2.7
COc1cccc(-c2cc(NC=O)c3ncc(-c4ccc(OC)c(OC)c4)n3c2)c1
    3 | -2 | 5.0
C[C@H]1CN([C@@H](C)CO)C(=O)Cc2cc(NS(=O)(=O)c3ccccc3)ccc2O[C@@H]1CN(C)S(C)(=O)=O
    7 | 18 | 1.7
CC(C)Oc1ccc(S(=O)(=O)N2CCOCC2)cc1NC(=O)CC1CC2CCC1C2 (stereo unspecified)
    4 | 4 | 0.1
COc1ccc(CN(C)C[C@@H]2Oc3ccc(NS(=O)(=O)c4ccc(Cl)cc4)cc3C(=O)N([C@H](C)CO)C[C@H]2C)cc1
    -2 | 3 | 0.9
CNC[C@H]1Oc2ccc(NS(C)(=O)=O)cc2CC(=O)N([C@H](C)CO)C[C@H]1C
    8 | 6 | -2.1
COc1ccc2c3c(n(C)c2c1)[C@@H](CO)N(Cc1ccccc1F)CC31CN(C(=O)C2CCOCC2)C1
    1 | 12 | -1.2
Cc1ccc(S(=O)(=O)Nc2cccc3c2O[C@H](CN(C)C(=O)NC(C)C)[C@@H](C)CN([C@@H](C)CO)C3=O)cc1
    0 | 0 | -0.8
COc1ccc(NC(=O)N[C@@H]2CC[C@@H](CCNC(=O)c3cc(Cl)cc(Cl)c3)O[C@@H]2CO)cc1
    1 | 0 | -0.2
C[C@H]1CN([C@@H](C)CO)C(=O)c2cc(-c3ccccc3F)cnc2O[C@H]1CN(C)Cc1cccc(F)c1
    -3 | -6 | 1.3
COc1ccc2c3c(n(C)c2c1)[C@H](CO)N(C(=O)C1CCCC1)CC31CN(C(=O)CN(C)C)C1
    1 | 7 | -1.3
Cc1ccc(F)cc1C(=O)N1CCCC(C)(C(=O)NS(=O)(=O)C2CC2)C1 (stereo unspecified)
    9 | 8 | 1.9
COCc1cn(CC[C@H]2CC[C@@H](NC(=O)Nc3ccc(F)cc3)[C@@H](CO)O2)nn1
    3 | 14 | 0.3
O=C(CC1CC1)N1[C@@H](CO)[C@@H](c2ccccc2)C12CN(Cc1cc(F)ccc1F)C2
    -9 | -8 | 5.3
COC(=O)C1=C(C)N(C)C(=NCc2ccc3c(c2)OCO3)NC1c1cccc(F)c1 (stereo unspecified)
    20 | 14 | 7.3
O=C(C[C@@H]1CC[C@@H]2[C@H](COC[C@H](O)CN2C(=O)c2cccnc2)O1)NCc1ccc(-c2ccccc2)cc1
    -2 | -12 | 0.2
CCCC#Cc1ccc2c(c1)O[C@@H](CN(C)Cc1ccccc1)[C@@H](C)CN([C@H](C)CO)S2(=O)=O
    -5 | -7 | 6.3
O=C(NC1CCC1)[C@@H]1[C@@H](CO)[C@@H]2Cn3c(ccc(-c4ccccc4F)c3=O)[C@@H]2N1Cc1ccncc1
    -3 | -1 | 1.3
Cc1cccc(C)c1NC(=O)C1(C)CCC(=O)N1CCc1c[nH]c2ccccc12 (stereo unspecified)
    2 | -6 | -3.3
O=C(NC(=S)Nc1ccc([N+](=O)[O-])cc1)c1ccco1
    10 | 0 | 4.9
O=C(C[C@@H]1CC[C@@H]2[C@H](COC[C@H](O)CN2C(=O)Nc2ccccc2)O1)NC1Cc2ccccc2C1
    4 | 14 | 2.1
CC(C)NC(=O)N1CC[C@@H]2[C@H]1c1cc(C#Cc3ccccc3)ccc1N(C)[C@@H]2CO
    -9 | 1 | -2.5
C[C@@H]1CN([C@H](C)CO)C(=O)c2cccc(NC(=O)Nc3ccc(C(F)(F)F)cc3)c2O[C@H]1CN(C)Cc1ccc(Cl)c(Cl)c1
    -3 | 5 | 2.4
COc1ccccc1S(=O)(=O)N(C)C[C@H]1Oc2cc(/C=C/c3ccccc3)ccc2S(=O)(=O)N([C@@H](C)CO)C[C@H]1C
    2 | 6 | -5.0
CO[C@H]1CN(C)C(=O)c2cc(NC(C)=O)ccc2OC[C@H](C)N(C(=O)CC2CC2)C[C@@H]1C
    1 | 6 | -1.8
CCCNC(=O)N1C[C@H](O)COC[C@@H]2O[C@H](CC(=O)NCc3ccncn3)CC[C@H]21
    2 | 5 | 1.2
COCC(=O)N(C)C[C@H]1Oc2ncc(C#Cc3ccncc3)cc2C(=O)N([C@@H](C)CO)C[C@H]1C
    11 | 10 | 0.1
COc1ccc(NC(=O)N(C)C[C@@H]2Oc3ncc(C#CCC(C)C)cc3C(=O)N([C@H](C)CO)C[C@H]2C)cc1
    -1 | -11 | 3.2
Cn1cnc(S(=O)(=O)N2C[C@H](O)COC[C@H]3O[C@@H](CC(=O)NCc4ccc(F)cc4)CC[C@@H]32)c1
    4 | 16 | -3.3
COc1ccc(NC(=O)N2CC(=O)N3[C@H](C2)[C@@H](c2ccc(C#CCC4CCCC4)cc2)[C@@H]3CO)cc1
    1 | -10 | 0.5
COCC(=O)N(C)C[C@H]1Oc2ncc(C3=CCCCC3)cc2C(=O)N([C@H](C)CO)C[C@@H]1C
    3 | 7 | -3.9
CC(C)NC(=O)C1(C)CCCN1Cc1csc2ccccc12 (stereo unspecified)
    -10 | -13 | 2.9
Cc1ccc2ccc(C#N)cc2c1O
    -5 | -7 | -0.4
Cc1noc(C)c1NC(=O)N(C)C[C@@H]1Oc2ccc(NC(=O)Cc3ccccc3)cc2C(=O)N([C@@H](C)CO)C[C@H]1C
    0 | -10 | -1.0
C[C@H]1CN([C@@H](C)CO)S(=O)(=O)c2ccc(C#Cc3ccncc3)cc2O[C@@H]1CN(C)C(=O)C1CCC1
    -9 | -8 | 5.4
O=C(c1cccnc1)N1C[C@@H]2[C@H](c3ccccc31)[C@H](CO)N2C(=O)Nc1ccccc1
    4 | 6 | 0.7
C[C@@H]1CN([C@@H](C)CO)C(=O)c2cc(/C=C/c3ccccc3)cnc2O[C@@H]1CN(C)C
    11 | 4 | 1.1
CO[C@@H]1CN(C)C(=O)c2cc(NC(=O)Nc3ccc4c(c3)OCO4)ccc2OC[C@H](C)NC[C@@H]1C
    4 | 1 | -1.5
CS(=O)(=O)N1[C@H](CO)[C@H](c2ccccc2-c2ccc(F)cc2)[C@@H]1C#N
    -6 | 5 | -1.9
Cc1noc(C)c1NC(=O)Nc1cccc2c1O[C@H](CN(C)Cc1ccc(C(=O)Nc3ccccc3N)cc1)[C@@H](C)CN([C@H](C)CO)C2=O
    2 | 2 | -2.5
COCCNC(=O)C[C@@H]1C[C@@H]2c3cc(NS(C)(=O)=O)ccc3O[C@@H]2[C@H](CO)O1
    1 | 1 | -4.0
CNC[C@H]1OCCCC[C@H](C)Oc2ccc(NS(=O)(=O)c3ccc(C)cc3)cc2C(=O)N([C@H](C)CO)C[C@@H]1C
    6 | 0 | -1.3
COCCNC(=O)C[C@H]1C[C@@H]2c3cc(NC(=O)Nc4ccc(C(F)(F)F)cc4)ccc3O[C@@H]2[C@@H](CO)O1
    -8 | -31 | -0.8
COc1cccc(S(=O)(=O)N(C)C[C@H]2Oc3cc(C#CCC(C)C)ccc3S(=O)(=O)N([C@H](C)CO)C[C@H]2C)c1
    -2 | 6 | -0.9
Cc1noc(C)c1S(=O)(=O)Nc1ccc2c(c1)C(=O)N([C@@H](C)CO)C[C@H](C)[C@H](CN(C)Cc1ccc(C(F)(F)F)cc1)OCCCC[C@@H](C)O2
    0 | -3 | 2.1
C[C@@H]1CN([C@H](C)CO)C(=O)c2cc(NS(=O)(=O)c3cn(C)cn3)ccc2O[C@@H]1CN(C)C(=O)Nc1ccccc1
    4 | 17 | -0.9
O=C(C[C@@H]1CC[C@@H](NC(=O)C2CCOCC2)[C@H](CO)O1)NCC1CC1
    1 | 1 | -2.6
CCCS(=O)(=O)NC(=O)C1(C)CCN(C(=O)c2ccccc2F)C1 (stereo unspecified)
    6 | 0 | 1.0
CCCC#Cc1ccc2c(c1)O[C@@H](CN(C)S(=O)(=O)c1cccc(F)c1)[C@@H](C)CN([C@@H](C)CO)S2(=O)=O
    -3 | -9 | -0.4
COc1ccc(NC(=O)Nc2ccc3c(c2)C(=O)N([C@H](C)CO)C[C@@H](C)[C@H](CN(C)C(=O)Nc2cccc4ccccc24)O3)cc1
    -3 | -4 | 2.4
CO[C@H]1CN(C)C(=O)c2cc(C#N)ccc2OCC[C@@H]2CC[C@@H](OC)[C@@H](CN(C)C(=O)[C@H]1C)O2
    -2 | -17 | -1.9
C[C@@H]1CN([C@@H](C)CO)C(=O)Cc2cc(NS(=O)(=O)c3ccc(Cl)cc3)ccc2O[C@@H]1CN(C)Cc1ccc(C(F)(F)F)cc1
    1 | 15 | 3.0
COc1ccc2c3c([nH]c2c1)[C@H](CO)N(Cc1cccc(F)c1)CC31CN(Cc2ccccn2)C1
    -4 | 4 | 4.7
CCC(=O)N(C)C[C@@H]1Oc2ncc(C#Cc3ccc(OC)cc3)cc2C(=O)N([C@H](C)CO)C[C@@H]1C
    3 | 1 | -3.6
C[C@H](CO)N1C[C@H](C)[C@@H](CN(C)Cc2ccc(Oc3ccccc3)cc2)Oc2ccc(NC(=O)Nc3ccc(F)cc3)cc2CC1=O
    1 | -5 | 4.3

# Reprinted at random: two records from the list.
# The line under a structure holds: rRNA inh HTS | rRNA inh HTS OD600 | rRNA inh HTS RFP
Cc1noc(C)c1NC(=O)Nc1cccc2c1O[C@H](CN(C)Cc1ccc(C(=O)Nc3ccccc3N)cc1)[C@@H](C)CN([C@H](C)CO)C2=O
    2 | 2 | -2.5
CCCS(=O)(=O)NC(=O)C1(C)CCN(C(=O)c2ccccc2F)C1 (stereo unspecified)
    6 | 0 | 1.0

# These rows are one share of the data. The share of hits here may be higher or lower than overall.
